MT1-MMP promoter: MT1-MMP gene expression reporter suppression – cell-based, luciferase reporter, luminescence (AID 618); MT1-MMP promoter luciferase reporter cells, luminescence; actives 0.62% (n = 87,000); calls from a first round at 10 µM; hits with a dose series show EC50 in µM;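 active means over half of the reporter light lost at 10 µM or EC50 under 50 µM; inactive means the rest and hits that failed the dose series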;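 further: actives suppress MT1-MMP promoter-driven transcription so potencies describe inhibitors; HT1080 fibrosarcoma cells; overnight exposure; toxic or luciferase-blocking compounds were not removed from the actives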
Hsc70 ATP site: Hsc70 inhibitors, probe displacement, primary screen, biochemical, fluorescence polarization (AID 568). Hsc70 fluorescence polarization, probe displacement; higher % means a stronger effect; strong numbers were not always called active. one-dose displacement, % at 20 µM; IC50 in µM for titrated hits. 83,000 tested, under 10 active;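 active means displacement above 50% without optical interference and an IC50 on retest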;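 further: ATPase domain with a fluorescein-tagged ATP probe; 0% = vehicle and 100% = excess ADP; read after one hour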
WNV NS2B-NS3 inh: WNV NS2B-NS3 proteinase inhibition | actives 0.18% (n = 65,000) | WNV NS2B-NS3 protease, fluorogenic substrate Ex360/Em465; hits give low values | z-score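 (tested at a level between 10 and 100 µM)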 | P06935;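 active means z-score at -3 or under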;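 further: score is relative to mean and spread of the compound wells of a plate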
Target sequence (P06935 1371-1501 limits assumed): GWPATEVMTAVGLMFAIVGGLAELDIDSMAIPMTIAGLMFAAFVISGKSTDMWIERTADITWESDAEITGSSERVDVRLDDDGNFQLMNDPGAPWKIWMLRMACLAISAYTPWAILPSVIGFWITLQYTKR
Target sequence (P06935 1502-1679 limits assumed): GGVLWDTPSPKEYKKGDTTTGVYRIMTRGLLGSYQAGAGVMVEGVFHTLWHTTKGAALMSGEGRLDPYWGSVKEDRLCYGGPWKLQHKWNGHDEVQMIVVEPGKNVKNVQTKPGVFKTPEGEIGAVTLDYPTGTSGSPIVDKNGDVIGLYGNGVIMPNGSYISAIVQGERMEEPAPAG
* = called active by the depositor. Only part of the results is shown, so the mix of outcomes need not match the whole.

Results for COC(=O)CNC(=O)c1c(-c2ccccc2Cl)noc1C ?
MT1-MMP promoter: inactive; Hsc70 ATP site: 2.2%; WNV NS2B-NS3 inh: -1.15

How did Cc1cc(C)nc(SCNC(=O)c2ccc(F)cc2)n1 do in these assays?
MT1-MMP promoter: inactive; Hsc70 ATP site: -5.4%; WNV NS2B-NS3 inh: 0.41

What do the screens show for `CCc1nnc2n1N=C(c1ccc(OC)cc1)CS2`?
MT1-MMP promoter: inactive; Hsc70 ATP site: 7.0%

How did CCCOc1ccc(/C=c2\sc3nc(-c4ccco4)nn3c2=O)cc1OCC do in these assays?
MT1-MMP promoter: inactive; Hsc70 ATP site: 14.0%; WNV NS2B-NS3 inh: -1.46

How did CCn1c(SCC(N)=O)nnc1-c1cc2c(C)nn(-c3ccccc3)c2s1 do in these assays?
MT1-MMP promoter: inactive; Hsc70 ATP site: -2.7%; WNV NS2B-NS3 inh: -0.01

What do the screens show for `CCCC(=O)n1nc(-c2ccc(OC)cc2)nc1N`?
MT1-MMP promoter: inactive; Hsc70 ATP site: 4.1%; WNV NS2B-NS3 inh: 0.06

How did CCCNC(=O)Cn1cnc2sc(C(=O)N3CCN(c4ccc(F)cc4)CC3)c(C)c2c1=O do in these assays?
MT1-MMP promoter: inactive; Hsc70 ATP site: 5.0%

How did O=C1SCCc2c1n(Cc1ccccc1)c1ccccc21 do in these assays?
MT1-MMP promoter: inactive; Hsc70 ATP site: 2.7%

How did Cc1ccc(N2CCCn3c2nc2c3c(=O)n(CCN3CCOCC3)c(=O)n2C)cc1 do in these assays?
MT1-MMP promoter: inactive; Hsc70 ATP site: 0.8%; WNV NS2B-NS3 inh: -0.43

How did CN1C(=O)CC2(CC(=O)N(Cc3ccccc3)C2)C1=O (stereo not given) do in these assays?
MT1-MMP promoter: inactive; Hsc70 ATP site: -2.0%; WNV NS2B-NS3 inh: -0.98

What do the screens show for `Cc1nnc(N2CCN(Cc3ccccc3)CC2)[nH]c1=O`?
MT1-MMP promoter: inactive; Hsc70 ATP site: -0.3%; WNV NS2B-NS3 inh: -1.17

What do the screens show for `Cc1cccc(NC(=O)c2ccc(COc3ccc(Cl)cc3Cl)o2)n1`?
MT1-MMP promoter: inactive; Hsc70 ATP site: -0.2%

Sorted by heavy-atom count (lowest first): part of the list above.
Results for COC(=O)CNC(=O)c1c(-c2ccccc2Cl)noc1C ?
MT1-MMP promoter: inactive; Hsc70 ATP site: 2.2%; WNV NS2B-NS3 inh: -1.15

How did CCn1c(SCC(N)=O)nnc1-c1cc2c(C)nn(-c3ccccc3)c2s1 do in these assays?
MT1-MMP promoter: inactive; Hsc70 ATP site: -2.7%; WNV NS2B-NS3 inh: -0.01

How did Cc1ccc(N2CCCn3c2nc2c3c(=O)n(CCN3CCOCC3)c(=O)n2C)cc1 do in these assays?
MT1-MMP promoter: inactive; Hsc70 ATP site: 0.8%; WNV NS2B-NS3 inh: -0.43

Additional records follow:
How did Cc1ccc(NC(=O)N2CCC(NC(=O)c3ccccc3C)CC2)cc1 do in these assays?
MT1-MMP promoter: inactive; Hsc70 ATP site: -2.9%; WNV NS2B-NS3 inh: -1.18

What do the screens show for `c1cc2c(cc1Oc1nc(N3CCOCC3)nc(N3CCOCC3)n1)OCO2`?
MT1-MMP promoter: inactive; Hsc70 ATP site: -4.5%; WNV NS2B-NS3 inh: -0.77

How did Cc1nc2ccccc2n1C(=O)N1CCOCC1 do in these assays?
MT1-MMP promoter: inactive; Hsc70 ATP site: -3.6%

How did CC(=NC1CCCCC1)C1=C(O)c2ccccc2C1=O do in these assays?
MT1-MMP promoter: inactive; Hsc70 ATP site: -5.4%; WNV NS2B-NS3 inh: -0.3

How did Cc1onc(-c2ccccc2)c1C(=O)Nc1c(C)n(C)n(-c2ccccc2)c1=O do in these assays?
MT1-MMP promoter: inactive; Hsc70 ATP site: 5.0%; WNV NS2B-NS3 inh: 1.02

What do the screens show for `COc1ccc(CSc2nnnn2Cc2ccccc2)cc1OC`?
MT1-MMP promoter: inactive; Hsc70 ATP site: -4.3%; WNV NS2B-NS3 inh: -0.99

What do the screens show for `CS(=O)(=O)N1CCN(c2ccccc2NC(=O)Cc2ccc(Cl)cc2)CC1`?
MT1-MMP promoter: inactive; Hsc70 ATP site: 2.7%; WNV NS2B-NS3 inh: -0.32

What do the screens show for `Cn1c(=O)c2c(ncn2CC(=O)Nc2nc(-c3ccccc3Cl)cs2)n(C)c1=O`?
MT1-MMP promoter: inactive; Hsc70 ATP site: -2.3%; WNV NS2B-NS3 inh: 0.5

How did O=C(CSc1ncnc2c1oc1ccccc12)N1CCc2ccccc2C1 do in these assays?
MT1-MMP promoter: inactive; Hsc70 ATP site: 1.3%; WNV NS2B-NS3 inh: -1.09

How did O=C(CCCc1c[nH]c2ccccc12)N1CCCCCC1 do in these assays?
MT1-MMP promoter: inactive; Hsc70 ATP site: -0.7%; WNV NS2B-NS3 inh: -0.34

Results for CC(C)c1nc2ccccn2c1NC1CCCCC1 ?
MT1-MMP promoter: inactive; Hsc70 ATP site: 5.1%

Results for O=C(CSc1nc(O)cc(=O)n1-c1ccccc1)NCc1ccccc1 ?
MT1-MMP promoter: inactive; Hsc70 ATP site: -2.0%; WNV NS2B-NS3 inh: 1.65

Already shown: entries from further up.
How did CN1C(=O)CC2(CC(=O)N(Cc3ccccc3)C2)C1=O (stereo not given) do in these assays?
MT1-MMP promoter: inactive; Hsc70 ATP site: -2.0%; WNV NS2B-NS3 inh: -0.98

What do the screens show for `Cc1nnc(N2CCN(Cc3ccccc3)CC2)[nH]c1=O`?
MT1-MMP promoter: inactive; Hsc70 ATP site: -0.3%; WNV NS2B-NS3 inh: -1.17

What do the screens show for `Cc1cccc(NC(=O)c2ccc(COc3ccc(Cl)cc3Cl)o2)n1`?
MT1-MMP promoter: inactive; Hsc70 ATP site: -0.2%

How did Cc1ccc(NC(=O)N2CCC(NC(=O)c3ccccc3C)CC2)cc1 do in these assays?
MT1-MMP promoter: inactive; Hsc70 ATP site: -2.9%; WNV NS2B-NS3 inh: -1.18

What do the screens show for `c1cc2c(cc1Oc1nc(N3CCOCC3)nc(N3CCOCC3)n1)OCO2`?
MT1-MMP promoter: inactive; Hsc70 ATP site: -4.5%; WNV NS2B-NS3 inh: -0.77

How did Cc1nc2ccccc2n1C(=O)N1CCOCC1 do in these assays?
MT1-MMP promoter: inactive; Hsc70 ATP site: -3.6%

How did CC(=NC1CCCCC1)C1=C(O)c2ccccc2C1=O do in these assays?
MT1-MMP promoter: inactive; Hsc70 ATP site: -5.4%; WNV NS2B-NS3 inh: -0.3

How did Cc1onc(-c2ccccc2)c1C(=O)Nc1c(C)n(C)n(-c2ccccc2)c1=O do in these assays?
MT1-MMP promoter: inactive; Hsc70 ATP site: 5.0%; WNV NS2B-NS3 inh: 1.02

What do the screens show for `COc1ccc(CSc2nnnn2Cc2ccccc2)cc1OC`?
MT1-MMP promoter: inactive; Hsc70 ATP site: -4.3%; WNV NS2B-NS3 inh: -0.99

What do the screens show for `CS(=O)(=O)N1CCN(c2ccccc2NC(=O)Cc2ccc(Cl)cc2)CC1`?
MT1-MMP promoter: inactive; Hsc70 ATP site: 2.7%; WNV NS2B-NS3 inh: -0.32

What do the screens show for `Cn1c(=O)c2c(ncn2CC(=O)Nc2nc(-c3ccccc3Cl)cs2)n(C)c1=O`?
MT1-MMP promoter: inactive; Hsc70 ATP site: -2.3%; WNV NS2B-NS3 inh: 0.5

How did O=C(CSc1ncnc2c1oc1ccccc12)N1CCc2ccccc2C1 do in these assays?
MT1-MMP promoter: inactive; Hsc70 ATP site: 1.3%; WNV NS2B-NS3 inh: -1.09

How did O=C(CCCc1c[nH]c2ccccc12)N1CCCCCC1 do in these assays?
MT1-MMP promoter: inactive; Hsc70 ATP site: -0.7%; WNV NS2B-NS3 inh: -0.34

Results for CC(C)c1nc2ccccn2c1NC1CCCCC1 ?
MT1-MMP promoter: inactive; Hsc70 ATP site: 5.1%

Results for O=C(CSc1nc(O)cc(=O)n1-c1ccccc1)NCc1ccccc1 ?
MT1-MMP promoter: inactive; Hsc70 ATP site: -2.0%; WNV NS2B-NS3 inh: 1.65

New compounds follow
How did Cn1c(SCC2CCCCC2)nnc1-c1ccncc1 do in these assays?
MT1-MMP promoter: inactive; Hsc70 ATP site: -5.4%; WNV NS2B-NS3 inh: -0.83

What do the screens show for `O=C(Oc1cccnc1)c1cc2ccccc2oc1=O`?
MT1-MMP promoter: inactive; Hsc70 ATP site: -2.0%; WNV NS2B-NS3 inh: -0.79

What do the screens show for `CCc1nc(SCC(=O)Nc2cccc(C(F)(F)F)c2)c2c(=O)n(C)c(=O)n(C)c2n1`?
MT1-MMP promoter: inactive; Hsc70 ATP site: -1.8%; WNV NS2B-NS3 inh: 1.66

What do the screens show for `Cc1ccc(S(=O)(=O)n2cnc3ccccc32)c(C)c1`?
MT1-MMP promoter: inactive; Hsc70 ATP site: 2.2%

How did COc1ccc(N/C=C(\C#N)c2ccc(OCCCF)cc2)cc1 do in these assays?
MT1-MMP promoter: inactive; Hsc70 ATP site: -1.2%

Results for COc1ccc(C2CC(c3ccc(Cl)c(Cl)c3)Nc3nc(N)nn32)cc1 (stereo not given) ?
MT1-MMP promoter: inactive; Hsc70 ATP site: 1.6%; WNV NS2B-NS3 inh: -0.03

What do the screens show for `CCCc1nc2ccccc2c(C(=O)OCC(=O)Nc2cccc(S(=O)(=O)N3CCOCC3)c2)c1CC`?
MT1-MMP promoter: inactive; Hsc70 ATP site: -6.3%

What do the screens show for `O=C(COC(=O)c1cccc(C(=O)OCC(=O)NC2CCCCC2)n1)NC1CCCCC1`?
MT1-MMP promoter: inactive; Hsc70 ATP site: -4.7%; WNV NS2B-NS3 inh: -1.31

How did OCCN1CCN(c2nc(NCc3ccco3)c3ccccc3n2)CC1 do in these assays?
MT1-MMP promoter: inactive; Hsc70 ATP site: -1.8%

What do the screens show for `Cc1ccc(C(=O)N/C(=C\c2cccs2)C(=O)NC2CCCCC2)cc1`?
MT1-MMP promoter: inactive; Hsc70 ATP site: 0.5%

Results for Clc1ccc(-c2nnc3sc(-c4ccccn4)nn23)cc1 ?
MT1-MMP promoter: inactive; Hsc70 ATP site: 1.5%; WNV NS2B-NS3 inh: -0.13

What do the screens show for `CC(=O)N1CCN2C(=O)C1CCCC(=O)c1cc(C)ccc12` (stereo not given)?
MT1-MMP promoter: inactive; Hsc70 ATP site: -0.4%

Results for CC(=O)c1cccc(NC=C2C(=O)OC3(CCCCC3)OC2=O)c1 ?
MT1-MMP promoter: inactive; Hsc70 ATP site: 2.7%

How did Cc1sc2ncn3cnnc3c2c1C do in these assays?
MT1-MMP promoter: inactive; Hsc70 ATP site: -3.4%; WNV NS2B-NS3 inh: -0.72

Results for COC(=O)C1=C(N)Oc2cc(C)n(Cc3cccnc3)c(=O)c2C1c1ccc(OC)c(OC)c1 (stereo not given) ?
MT1-MMP promoter: inactive; Hsc70 ATP site: -5.0%; WNV NS2B-NS3 inh: -0.81

How did O=C(c1cn(CC(=O)N2CCCCC2)c2ccccc12)C1CC1 do in these assays?
MT1-MMP promoter: inactive; Hsc70 ATP site: -2.3%; WNV NS2B-NS3 inh: 0.01

What do the screens show for `Cc1ccc(N(C(C)C(=O)N2CCCCC2)S(C)(=O)=O)cc1C` (stereo not given)?
MT1-MMP promoter: inactive; Hsc70 ATP site: 1.2%; WNV NS2B-NS3 inh: -0.27

What do the screens show for `CCN(CC)C(=O)CSc1nc2ncc(Cl)cc2[nH]1`?
MT1-MMP promoter: inactive; Hsc70 ATP site: -5.6%; WNV NS2B-NS3 inh: -0.61

How did CCc1cc(/C(Cc2ccc3ccccc3n2)=N\O)c(O)cc1O do in these assays?
MT1-MMP promoter: inactive; Hsc70 ATP site: -3.7%; WNV NS2B-NS3 inh: -1.87

Results for CCn1c(C)c(C(C)=O)c(N2CCN(c3ccccn3)CC2)nc1=S ?
MT1-MMP promoter: inactive; Hsc70 ATP site: 4.2%; WNV NS2B-NS3 inh: 3.4
